# Screening data from PubChem.
# Rce1 inhib: inhibitors of yeast Ras-converting enzyme; yeast membranes, quenched prenylated peptide cleavage fluorescence; calls only; hit rate 0.27% among 290,000; AID 2563;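 active means fall in fluorescence gain of 50% or more versus controls, with final raw signal at or below 3038400; inconclusive means same 50% fall but final raw signal above 3038400; inactive means fall in fluorescence gain under 50%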;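 further: plate controls were neutral control wells for no effect and wells lacking membranes for full effect; tested at 10 µM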
# eIF4H FP inh: inhibitors of RNA binding by human eIF4H; inhibition, % at 35 µM; hit rate 0.94% among 290,000; Q15056; eIF4H fluorescence polarization binding assay;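 active means 50% or more with normal probe brightness, or confirmed in later tests; inconclusive means above 50% with abnormal brightness, or retests that disagree; inactive means below 50% or failed in later tests; about a fifth of its hits are not listed in these tables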;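 further: calls also rest on retests at 20 µM and on dose response follow-up; 0% = protein and probe with vehicle and 100% = probe without protein; strong numbers were not always called active; many hits fall short of the cut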
# Yeast UUG start: yeast start codon fidelity modulation. hit rate 0.13% among 350,000. S. cerevisiae UUG-firefly luciferase reporter, luminescence/redox ratio. activity score, % at 18.7 µM;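 active means replicate mean at a twofold rise or more, about +100% in these data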;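 further: firefly luciferase made from a UUG start codon reports start codon fidelity; reporter light over untreated wells divided by growth signal over untreated wells; some hits fall short of that in this replicate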
# MT1-MMP act inh: MT1-MMP (human) activation inhibition; P50281; HT1080 RFP-PRO-GFP cells, GFP/RFP ratio fluorescence, overnight; percent of plate control window, DMSO zero; GFP/RFP ratio change, % at 20 µM; AID 651647; hit rate 0.061% among 360,000;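 active means GFP/RFP ratio change of at least 30% with cell ATP level not reduced by more than half and red fluorescence within 50% of control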; further: strong numbers were not always called active
#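 Test system: HT1080 RFP-PRO-GFP cells; Benchmarks: DMSO and RFP-L50D-GFP cell wells; Timing: cells overnight before dosing, compound overnight, 37 °C, 5% CO2; Compound: one 20 µM compound dose with 1% DMSO; Read-out: GFP/RFP fluorescence ratio.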
# PABP FP inh: blocks human PABP binding to poly(A) RNA. P11940. fluorescence polarization. inhibition, % at 35 µM. hit rate 1% among 290,000;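 active means 50% or more with normal probe brightness, or confirmed in later tests; inconclusive means above 50% with abnormal brightness, or retests that disagree; inactive means below 50% or failed in later tests; about a fifth of its hits are not listed in these tables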;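 further: calls also rest on retests at 20 µM and on dose response follow-up; controls were probe without protein and protein plus probe with vehicle; some compounds called inactive have numbers as strong as hits; many hits fall short of the cut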
# Target sequence (P11940 whole entry, looked up): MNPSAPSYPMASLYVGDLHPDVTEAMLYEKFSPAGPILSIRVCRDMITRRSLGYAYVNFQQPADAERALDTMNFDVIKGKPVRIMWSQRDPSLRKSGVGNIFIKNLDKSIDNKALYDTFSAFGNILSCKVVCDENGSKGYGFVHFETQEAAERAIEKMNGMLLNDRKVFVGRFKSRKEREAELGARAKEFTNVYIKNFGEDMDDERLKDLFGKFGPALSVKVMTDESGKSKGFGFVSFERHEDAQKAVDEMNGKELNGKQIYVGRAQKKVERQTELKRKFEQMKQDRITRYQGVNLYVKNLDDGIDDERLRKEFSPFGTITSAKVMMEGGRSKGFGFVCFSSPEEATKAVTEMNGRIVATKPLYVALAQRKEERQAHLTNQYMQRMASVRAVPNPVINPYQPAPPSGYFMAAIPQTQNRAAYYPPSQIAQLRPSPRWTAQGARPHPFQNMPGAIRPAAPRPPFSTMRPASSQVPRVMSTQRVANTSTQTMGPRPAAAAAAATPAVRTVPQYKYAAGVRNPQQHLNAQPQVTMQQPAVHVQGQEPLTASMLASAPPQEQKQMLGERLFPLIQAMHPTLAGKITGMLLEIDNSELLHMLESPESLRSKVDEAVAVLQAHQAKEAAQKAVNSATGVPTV
# CSC inhib: blocks cancer stem cells; cancer stem cell-like cells viability, luminescence; inhibition, % at 7.5 µM; hit rate 1.1% among 300,000; AID 2717;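 active means mean at 75% or more and at least half the replicates too; inconclusive means mean and replicates disagree; tested in HMLE shEcad cells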;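 further: 0% = median of negative and 100% = median of positive control wells; the first replicate is given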
# HIV Env fusion: HIV envelope-mediated fusion inhibition; HeLa-JRFL Env/CEM21 cell fusion, luciferase; inhibition, % at 12.3 µM; hit rate 1.1% among 360,000;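 active means mean replicate inhibition score of at least 50 and every replicate individually at or above 50; inconclusive means only one of the two criteria met; inactive means mean below 50 and not all replicates reaching 50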;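 further: 0% = plate neutral controls and 100% = maraviroc near 300 nM; one replicate is shown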
# MT1-MMP act inh RFP: further read-out of MT1-MMP act inh, marked with its call; RFP signal change, %; measured here: RFP expression control read;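 0 = vehicle wells; hits needed this value within 50% of zero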
# An asterisk follows results filed as active; i = inactive; ? = inconclusive; . = not tested or not shown; + = active, no number; & = joins results of further samples; [ ] = dose if it differs, or a comment.
# A first look (3 entries):
SMILES,Rce1 inhib,eIF4H FP inh,Yeast UUG start,MT1-MMP act inh,MT1-MMP act inh RFP,PABP FP inh,CSC inhib,HIV Env fusion
O=C(Nc1cccc(C(=O)O)c1)Nc1cccc2ccccc12,i,-3,-27,-1,1,2,-1,-4
O=c1c2ccccc2ncn1Cc1cccc2ccccc12,i,3,.,3,0,4,19,2
CC(=O)c1cccc(CN2CCN(C3CCCCC3)C(CCO)C2)c1 (stereo unspecified),i,3,-12,-1,3,5,3,-4

# All compounds of this part, repeating the preview:
SMILES,Rce1 inhib,eIF4H FP inh,Yeast UUG start,MT1-MMP act inh,MT1-MMP act inh RFP,PABP FP inh,CSC inhib,HIV Env fusion
O=C(Nc1cccc(C(=O)O)c1)Nc1cccc2ccccc12,i,-3,-27,-1,1,2,-1,-4
O=c1c2ccccc2ncn1Cc1cccc2ccccc12,i,3,.,3,0,4,19,2
CC(=O)c1cccc(CN2CCN(C3CCCCC3)C(CCO)C2)c1 (stereo unspecified),i,3,-12,-1,3,5,3,-4
C=CCNC(=S)N/N=C/c1ccc(C)s1,i,3,.,-1,-1,-10,-11,-13
COc1ccccc1-c1nc2ccccc2c(=O)n1NC(=O)c1cccs1,i,-4,-27,-5,-1,0,-6,-8
C#CCn1c2ccccc2c2nc3ccccc3nc21,i,-11,.,0,0,1,7,-29
CCOc1ccc(NC(=O)Nc2ccc(N(C)C(C)=O)cc2)cc1,i,-7,-9,4,-2,-8,13,9
CCN(C(=O)COC(=O)c1cc(OC)c(OC)cc1[N+](=O)[O-])C1CCS(=O)(=O)C1 (stereo unspecified),i,-4,-3,-3,0,8,-21,0
CC(Oc1ccc2c3c(c(=O)oc2c1)CCCC3)C(=O)NCc1ccncc1 (stereo unspecified),i,1,-1,2,0,12,-1,10
O=C(C[C@H]1C/C=C\C[C@H](NC(=O)OCC2c3ccccc3-c3ccccc32)C(=O)O[C@@H](c2ccccc2)CNC1=O)NCCO,.,.,1,1,2,.,10,.
CCOC(=O)c1c(-c2ccccc2)[nH]c2ccc(O)cc12,i,-4,-4,4,-2,2,-14,.
CCOc1ccc2c(c1)c(=O)c(S(=O)(=O)c1ccc(C)cc1)cn2CC,i,0,-1,-31,-1,6,10,9
O=S(=O)(NCC(c1ccco1)N1CCN(c2ccccc2F)CC1)c1ccc2c(c1)OCCO2 (stereo unspecified),i,6,.,-1,-12,11,7,-5
Cc1ccc(CN2CCC(n3nccc3NC(=O)c3ccccc3C)CC2)o1,i,-12,-7,3,5,-2,11,16
Nc1nc(NCc2ccco2)nc(Nc2ccc(F)cc2)c1[N+](=O)[O-],i,-1,4,4,0,-10,7,3
CC(=O)c1cccc(NC(=O)c2ccc(N(Cc3ccc(C)cc3)S(C)(=O)=O)cc2)c1,i,0,-4,12,-12,-8,.,.
C[C@H]1CN(C2CCCCC2)C(=O)[C@@H]1CC(=O)NCc1ccccc1,i,-6,-10,0,-4,1,-6,-3
CC(C)(C)c1ccc(/C=C/C(=O)N2CCOCC2)cc1,i,-5,.,3,5,-4,0,3
Cc1cccc([N+](=O)[O-])c1NC(=O)CN(Cc1ccccc1)Cc1ccccc1,i,-2,.,-12,-8,-2,20,-10
COc1ccc(OC)c(Nc2nc(N)nc(CSc3nnc(-c4ccncc4)o3)n2)c1,i,3,.,.,.,-15,-17,.
Cc1ccc(-n2nc3c([n+]2[O-])CCc2nonc2-3)cc1,i,-7,.,-4,-1,0,.,?
COc1ccc(N2C(=O)c3ccccc3NC2(C)C)cc1,i,-1,-22,2,4,-3,-7,-32
Cc1c(-c2ccccc2)n[nH]c1C(=O)N=Nc1c(O)[nH]c2ccccc12,i,7,.,5,8,20,37,-4
CCc1ccc(OCC(=O)NC(=S)Nc2ccc(C)cc2C)c(Br)c1,i,-2,-20,3,8,4,0,?
Cc1ccc(S(=O)(=O)N2CCC(C(=O)OCC(=O)N(C)CC(=O)Nc3ccc(F)cc3)CC2)cc1C,i,.,45,3,1,.,1,2
C=CCOC(=O)C1=C[C@@H](c2coc3ccccc3c2=O)[C@H](CCCO)[C@@H](OCC)O1,i,1,6,1,4,2,13,-12
Nc1c(O)cccc1C(=O)O,i,.,-14,7,7,.,2,.
C[C@H](CO)N1C[C@H](C)[C@@H](CN(C)S(=O)(=O)c2cn(C)cn2)Oc2ccc(NC(=O)Nc3ccc4c(c3)OCO4)cc2C1=O,.,.,7&-5,0,1,.,.,-6[16.7 µM]
CCCCNS(=O)(=O)c1ccc(OCC(=O)OC)cc1,i,0,.,2,1,-17,6,.
COC(=O)CC(=O)Cc1nc(N)nc(Nc2ccc(C)c(C)c2)n1,i,-6,-9,7,2,-6,-4,.
O=C(N/N=C/c1cccs1)c1cc(-c2ccc3ccccc3c2)n[nH]1,i,-1,.,3,-4,6,1,.
Nc1nonc1-n1nnc(C(=O)N/N=C/c2cccnc2)c1-c1ccccc1,i,1,-20,4,2,1,-12,2
Cc1nc2sc(C(c3ccco3)N3CC(C)OC(C)C3)c(O)n2n1 (stereo unspecified),i,14,-2,0,0,19,-3,.
COC(=O)c1ccc(OC)c(CN2CCCN(Cc3ccc(F)cc3)S2(=O)=O)c1,i,-1,-11,-1,-1,14,22,18
COc1cc(OC)cc(C(=O)N[C@H](C(=O)Nc2cc(F)ccc2C)C(C)C)c1,i,-2,.,-25,-17,-2,-3,1
COc1cccc(CC(=O)Nc2nc3ccccc3[nH]2)c1,i,-5,-19,2,-1,-4,-6,7
CC(C)NC(=O)CN(c1cccc(Br)c1)S(C)(=O)=O,.,-1,-15,6,0,1,-20,.
CC(C)(NC(=O)N1CCCC1)c1cccc(C(C)(C)NC(=O)N2CCCC2)c1,i,-8,-2,2,-2,-13,-2,.
O=C(Nc1cccc(Cl)c1)Nc1ccccc1C(=O)O,i,-10,-11,-3,2,-9,17,-68
O=C(Nc1cccnc1)c1ccc(CSc2ccccc2)cc1,i,2,.,4,-7,4,13,-12
c1ccc(CCn2nnnc2C(c2cccnc2)N2CCN(c3nc4ccccc4s3)CC2)cc1 (stereo unspecified),i,-14,-29,-3,-12,-17,18,.
C=C1CCC(O)C2(C)CCC3C(C)C(=O)OC3C12O (stereo unspecified),i,6,-2,-2,-1,-6,4,0
CCCCNS(=O)(=O)c1ccc2nc(-c3cccnc3)cc(C(=O)NCCCN(CC)CC)c2c1,i,-6,.,.,.,26,-11,.
CCOC(=O)c1ccc(-c2ccc3ncnc(NCc4csc(C)n4)c3c2)o1,.,.,-35,4,-5,.,.,6
c1ccc(-c2ccccc2OCCCN2CCCC2)cc1,i,5,-9,1,6,11,-1,-20
Cc1ccc(CS(=O)Cc2ccc(C(=O)NC3CCCC(C)C3C)o2)cc1 (stereo unspecified),i,-8,-2,4,-1,-4,-1,0
O=C(CS(=O)(=O)Cc1ccccc1)Nc1ccc(S(=O)(=O)N2CCOCC2)cc1,i,-12,4,3,6,1,7,-16
O=C(CSc1nnc(-c2cccs2)n1Cc1ccco1)Nc1ccc2c(c1)OCO2,i,3,-10,4,1,-7,-6,.
O=C(OCc1ccc(Cl)c(Cl)c1)c1ccc[nH]1,.,-14,-6,0,1,-4,-6,-44
O=C(COC(=O)c1c(F)cccc1F)NCc1ccc2c(c1)OCO2,.,.,-4,0,4,.,5,.
CCOc1ccc(-n2cnnn2)cc1S(=O)(=O)NC1CC1,i,3,-13,-3,2,-4,-8,7
O=[N+]([O-])c1ccc(NC(=S)N2CCc3ccccc3C2)cc1,i,-4,-23,0,0,-5,-5,0
COc1ccc(CNC(=O)/C=C/c2cc([N+](=O)[O-])ccc2OC(F)F)cc1,i,-5,-20,0,-2,4,-1,.
C=C(C)C1(O)OC(=O)C=C1OC (stereo unspecified),+,-2,-11,0,-3,6,0,.
O=C(Cc1ccc([N+](=O)[O-])cc1)N/N=C/c1ccc([N+](=O)[O-])o1,i,46,.,2,-8,15,-16,16
COC(=O)CNC(=O)C(Cc1c[nH]c2ccccc12)NC(=O)Oc1ccccc1 (stereo unspecified),i,-3,.,3,0,-1,-10,6
NC(=O)c1cccc(-c2csc(C(O)c3cccc(Cl)c3)n2)c1 (stereo unspecified),.,.,-5,0,-4,.,.,-11
CCC(=O)c1ccc(SC(=O)N(C)C)cc1O,i,4,-8,2,1,13,-7,7
COc1cc(C(C)=O)ccc1OCC(=O)Nc1ccccc1N1CCCCC1,i,.,8,-4,-8,.,62,23
Cn1c(/C=C/N2CCOCC2)c(C(=O)c2ccc(Br)cc2)c(=O)n(C)c1=O,i,1,-2,-1,2,3,-15,.

# More results:
SMILES,Rce1 inhib,eIF4H FP inh,Yeast UUG start,MT1-MMP act inh,MT1-MMP act inh RFP,PABP FP inh,CSC inhib,HIV Env fusion
O=C(Nc1ccc2c(c1)OCO2)c1ccc(S(=O)(=O)NCC2CCCO2)cc1 (stereo unspecified),i,-6,.,2,-7,6,-18,.
Cc1ccc(C)n1-c1ccc(-c2nnco2)cc1,i,13,-26,.,.,4,23,.
C=C(c1ccccc1O)n1ccnc1,i,-1,-21,0,0,0,-18,8
COc1ccccc1NS(=O)(=O)c1cccc(C(=O)N/N=C/c2ccc(OCC(=O)O)cc2)c1,i,5,.,4,7,2,-10,-1
Cc1cc(C)c(NC(=O)C2CCC(=O)N2)c(C)c1 (stereo unspecified),i,7,0,3,4,-8,12,11
Cc1ccc(S(=O)(=O)N(C)CC(=O)NC2CCCC2)cc1,i,6,-15,-3,-2,-9,11,-120
Cn1cnc(CCNC(=O)C[C@H]2CC[C@@H]3[C@H](COC[C@H](O)CN3C(=O)C3CCCC3)O2)c1,.,.,-6,-2,2,.,.,-20[16.7 µM]
Cc1cc(C)c2c3c(sc2n1)C1(CCSCC1)C(C#N)=C(N)O3,i,8,.,19,8,1,14,.
COc1ccc(NS(=O)(=O)c2cccc(C(=O)NNC(=O)c3cncc(Br)c3)c2)cc1,i,.,7,4,-4,.,-9,34
O=C(COc1ccc(-n2cnnn2)cc1)Nc1ccc(F)c(Cl)c1,.,.,-24,1,-2,.,7,0
Cc1noc(C)c1S(=O)(=O)N(C)C[C@@H]1OCc2cnnn2CCCC(=O)N([C@H](C)CO)C[C@@H]1C,.,.,-20&-1,-1,2,.,.,17
CNC(=S)NCc1ccc(Cl)cc1,i,.,-10,2,-1,.,1,-8
CCCC(C(=O)NC1CCCC1)N(C(=O)Cn1nnc(-c2ccc(C)o2)n1)c1ccccc1F (stereo unspecified),i,-7,-15,-3,-2,1,.,1
O=C(CC1(O)C(=O)N(CN2CCOCC2)c2ccccc21)c1ccccc1 (stereo unspecified),i,-13,-1,9,14,5,0,5
CCn1cc(C(=O)NN)c(=O)c2cc(F)c(N3CCCCC3)cc21,i,-22,-19,-1,2,6,.,11
Nc1cccc(/C=C/C(=O)O)c1,i,1,.,2,7,7,6,4
CC1CCC(NC(=O)Cn2cnc3sccc3c2=O)CC1 (stereo unspecified),.,.,-16,-1,-3,.,7,.
Cc1ccc(-c2noc(C3CCN(S(=O)(=O)c4ccc5c(c4)OCCO5)CC3)n2)o1,i,1,.,2,-16,-2,-12,.
CN(CC(=O)Nc1ccccc1Cl)C(=O)COC(=O)c1ccc(=O)n(Cc2ccccc2)n1,i,.,-6,-2,5,.,-3,12
Cc1noc(C)c1S(=O)(=O)Nc1ccc(O)c2c(=O)cc(-c3ccccc3Cl)oc12,i,13,-3,-1,3,-8,15,.
O=C(NC(C(=O)c1ccccc1)n1cnccc1=O)c1ccccc1 (stereo unspecified),i,-6,-17,-4,4,5,-7,.

# Not a hit list; about 3% have a hit in one of these screens.
